Screening results from PubChem.
StopGo FLuc = lowers the firefly signal of an FMDV 2A StopGo reporter | actives 0.23% (n = 120,000) | Potency, µM (top dose mostly 57.5 µM), for the others: top-dose signal change, negative = less light | HEK cells with a luciferase reporter of 2A StopGo recoding; active = well fitted falling curve with a large enough effect; inconclusive = small, poorly fitted or top-dose-only effect; inactive = no such curve, though single readings can be large or run the other way; also: nearly all actives have a fitted effect of over 60% in size; overnight with compound
StopGo RLuc = FMDV 2A StopGo reporter, Renilla signal; HEK cells with a luciferase reporter of 2A StopGo recoding; Potency, µM (titrated, usually from 57.5 µM), without a hit: top-dose signal change, negative = less light; actives 0.32% (n = 120,000); AID 1745857; active means well fitted falling curve with a large enough effect; inconclusive means small, poorly fitted or top-dose-only effect; inactive means no such curve, though single readings can be large or run the other way; also: nearly all actives have a fitted effect of over 55% in size; overnight with compound
Numbers without * were called inactive; u = inconclusive; [ ] = another dose, or the depositor's remark. % is scaled to controls: 0 for no effect and ±100 for the full control effect; potency is read from the fitted curve at half-maximal effect.

SMILES	StopGo FLuc	StopGo RLuc
COc1cnc(CSc2nc(C)cc(C)n2)cc1OCC(=O)N1CCc2ccccc21	-7%	-3%
COc1ccc(/C=C(/C#N)C(=O)Nc2ccc(C34CC5CC(CC(C5)C3)C4)cc2)cc1	0%	10%
COc1ccc(C2=C(C)CC(c3ccccc3)NC2=O)cc1OC (stereo not given)	-3%	-29%
Cc1ccccc1-c1noc(-c2nnn(-c3ccccc3C)c2N)n1	53%[activator]	5%
CC1CCC(NC(=O)c2ccc3c(c2)N(Cc2cccc(F)c2)C(=O)c2ccccc2S3)CC1 (stereo not given)	151%[activator]	-4%
C=CCNc1nc(-c2ccc3c(c2)CC(C)N3S(C)(=O)=O)cs1 (stereo not given)	-33%	21%
COc1cccc(NC(=O)CCc2c(C)nc3c4cccnc4nn3c2C)c1	1%	5%
CCCC(=O)Nc1ccc(CNCc2ccc(Br)cc2)cc1	0%	21%
COc1cccc(-n2c(C)c(C)c3c2ncn2nc(-c4ccco4)nc32)c1	7%	-6%
COc1ccc(NC(=O)Cn2ccc3c(Cl)cccc32)cc1	12%	5%
CCOC(=O)Cc1c(C)nc2cc(-c3ccc(C(C)(C)C)cc3)nn2c1C	-6%	2%
CCOC(=O)c1cc2cccc(OC)c2o1	75%[activator]	-1%
Brc1ccc(/C=N/Nc2nc3ccccc3c3ccccc23)cc1	11%	11%
CCCc1ccc(OC(C)C(=O)Nc2sc3c(c2C(=O)OC)CCCCC3)cc1 (stereo not given)	-17%	-5%
Cc1cc2oc(C(=O)NCc3ccccc3)cc(=O)c2cc1C	7%	9%
Cc1ccc(C)c(Cn2c(N3CCN(CC(C)C)CC3)nc3c2c(=O)[nH]c(=O)n3C)c1	18%	3%
CNC(=O)c1ccc(CN2C(=O)C(C)=C(c3ccc(C)c(C)c3)S2(=O)=O)cc1	u	u
C=CCNc1nc(-c2c(C(=O)OCC)c(C)n(CC)c2C)cs1	43%[activator]	43%[activator]
COc1ccccc1NC(=O)Cn1ccc2cc(Cl)ccc21	14%	9%
O=C(NC1CCCCC1)c1ccc(CSc2nc3ccncc3n2Cc2ccccc2)cc1	21%	2%
CCOc1ccc(NC(=O)c2cc(=O)c3ccccc3o2)cc1OCC	17%	7%
COc1ccc(OC)c(NC(=O)c2cc3c(OC)cccc3[nH]2)c1	19%	-4%
Cc1ccsc1/C=C/C(=O)c1ccc(C2CCCCC2)cc1	19%	33%[activator]
O=C(CN1CCN(C(=O)c2cc(-c3ccccc3Cl)n[nH]2)CC1)N1CCCCC1	0%	-3%
Cc1ccccc1CNC(=O)c1ccc(CSc2nc3cccnc3n2Cc2ccccc2)cc1	-19%	51%[activator]
O=C(NCCOc1ccccc1F)c1n[nH]c(=O)c2ccccc12	84%[activator]	6%
CN(CCOc1ccccc1)C(=O)c1cc2ccccc2oc1=O	25%	23%
CC(CCC(=O)O)(NC(=O)Cc1ccccc1)C(=O)O (stereo not given)	-1%	0%
COC(=O)[C@H](C(C)C)N(CCc1cn(Cc2ccccc2)nn1)S(=O)(=O)c1ccc(F)cc1Br	-12%	68%[activator]
O=C(CC1N=C2c3ccccc3N=C(SCc3ccc(Cl)cc3)N2C1=O)NCc1cccs1 (stereo not given)	0%	26%
COc1ccc(-n2cc(C(=O)NCc3cccc(OC)c3)c3ccccc3c2=O)cc1	-10%	u
CC(=O)N1CCN(C(=O)Cn2ccc3cc(Cl)ccc32)CC1	1%	-3%
Cc1cccc(N2CCN(C(=O)CNC(=O)NCc3ccc(F)cc3)CC2)c1C	-14%	-21%
CCN(CC)C(=O)c1c(NC(=O)c2ccccc2F)sc2c1CCC(C(C)(C)C)C2 (stereo not given)	0%	25%
Cc1ccc(N)c(OCC(F)F)c1	-3%	-11%[1.06 µM]
CCn1nc(C(=O)NCC(c2ccco2)N2CCCC2)c2ccccc2c1=O (stereo not given)	-4%	-13%
CCC(C)c1ccc(NC(=S)NNC(C)=O)cc1 (stereo not given)	22%	-5%
O=C(NCc1cccnc1)c1ccc(C2CCCCC2)cc1	u	u
O=C(/C=C/c1cccc(C(F)(F)F)c1)c1cc(Cl)ccc1Cl	24%	16%
Cc1scc(-c2ccccc2)[n+]1C	35%[activator]	1%
COc1ccc(-c2cc(C)no2)cc1S(=O)(=O)N1CCOc2ccccc21	11%	120%[activator]
COc1cccc(-c2c(NC(=O)c3cccc([N+](=O)[O-])c3)oc3ccc(Cl)cc3c2=O)c1	-1%	-26%
CCC1CCCCN1C(=O)Cn1c(=O)cc(C(F)(F)F)c2c(C)nn(C)c21 (stereo not given)	-26%	6%
COC(=O)c1ccccc1NC(=O)c1ccc2c(c1)CCN2S(=O)(=O)c1ccc(C)cc1	-12%	-9%
COC(=O)C1CN(Cc2cn(Cc3ccc(C)cc3)nn2)CCS(=O)(=O)N1Cc1ccc(OC)cc1 (stereo not given)	-3%	22%
CC(C)c1cccc(C(C)C)c1NC(=O)c1ccccc1Sc1ccccc1C#N	-1%	12%
Cc1ccc(-c2noc(CSc3nnc(Cc4ccccc4)n3-c3cccc(C)c3)n2)cc1	-30%	26%
COc1ccccc1CNS(=O)(=O)c1ccc(N2CCCCS2(=O)=O)cc1	-25%	29%
C=CCOc1ccc(C(=O)Nc2ccccc2-c2ccccc2)cc1	8%	-10%
O=C(CSc1cn(Cc2ccc(F)cc2)c2ccccc12)N1CCCCCC1	0%	29%

New compounds follow:
SMILES	StopGo FLuc	StopGo RLuc
c1ccc(N2CCN(CCNCC3CNc4ccnn4C3)CC2)cc1 (stereo not given)	-7%	-9%
CNC(=O)C1CCC(Cn2c(=O)c3sccc3n(CC(=O)NCc3ccc(F)cc3)c2=O)CC1 (stereo not given)	-4%	-1%
O=C(CSCc1ccc(F)cc1)N1CCN(c2ccc(Cl)cc2)CC1	u	u
C=CCOc1cccc(CNCC)c1	-5%	0%
CCN(CCCNC(=O)c1cc2cc3ccc(C)cc3nc2s1)c1ccccc1	445%[activator]	23%
COc1cccc(OCCn2c(-c3ccc(Br)cc3)nc3ccccc3c2=O)c1	78%[activator]	-7%
Clc1ccc(C=Nc2ccc(Cl)c(Cl)c2)cc1Cl	0%	9%
O=C(CN1C2=NCCCN2c2ccccc21)c1ccc(Cl)cc1Cl	-13%	-23%
Cc1nn2c(=O)c(NC(=O)c3ccc(F)cc3)cnc2s1	32%	7%
COc1ccc(NC(=O)Nc2c(NC3CCCC3)c3ccccc3oc2=O)cc1OC	-7%	-9%
Cc1ccc(S(=O)(=O)c2nnn3c2nc(NCc2ccc4c(c2)OCO4)c2sccc23)cc1C	-17%	-4%
Cc1ccc(C(NC(=O)CSc2nnnn2C2CCCCC2)c2cccs2)cc1 (stereo not given)	-12%	-5%
CCCN1C(C(=O)c2ccccc2)=C(OC(=O)COc2ccc(C)cc2)c2ccccc2S1(=O)=O	u	-10%
CCCCCCc1ccc(/C(C)=C/C(=O)O)cc1	0%	-12%[1.06 µM]
O=C(Cc1cccs1)N1CCN(c2ncnc3c2nnn3-c2ccccc2)CC1	26%	-6%
C/C=C/C=C/C(=O)NCc1cccs1	78%[activator]	5%
CCCNC(=O)C(C)N1CC=C(c2c[nH]c3ccccc23)CC1 (stereo not given)	-8%	-13%
CCOC(=O)COc1ccc2c(=O)c(Oc3cc(C)c(Cl)c(C)c3)coc2c1	-19%	-5%
COc1cccc(-c2cc(C(F)(F)F)n3nc(-c4ccc(C)cc4)cc3n2)c1	5%	-7%
O=C(Cc1ccc2ccccc2c1)NCCc1cccc2cccnc12	1%	7%
Cc1ccccc1NC(=O)CCn1cnc2onc(-c3ccc(F)cc3)c2c1=O	-26%	-14%
Cc1ccc(-c2nn(C)c(=O)c3ccccc23)cc1S(=O)(=O)NCCO	0%	222%[activator]
CCSc1ncc(Cl)c(C(=O)Nc2c(C(=O)c3ccccc3)oc3ccccc23)n1	-13%	-13%
O=C(NCc1ccccc1OC(F)F)c1ccccc1C(F)(F)F	29%	49%[activator]
CCn1c(=O)cc(SCC(=O)NCc2cccc(Cl)c2)c2ccccc21	78%[activator]	121%[activator]
NC(=O)c1cc(Cl)ccc1OCC(=O)N1CCCCCC1	16%	-5%
CCS(=O)(=O)N1CCCc2cc(C(=O)Nc3cc(Cl)ccc3C)ccc21	u	u
CN(C)S(=O)(=O)c1ccccc1CNS(=O)(=O)c1ccc2c(c1)CCC2	u	-23%
COc1ccc2c(c1)CC(NC(=O)Nc1ccc(NC(C)=O)cc1)CO2 (stereo not given)	-3%	-5%
CC(C)Cn1nc(C(=O)Nc2nnc(Cc3ccccc3)s2)c2ccccc2c1=O	-8%	-12%
CC(C)=CC1C(C(=O)Nc2ccc(C)cc2C)C1(C)C (stereo not given)	25%	26%
COc1cc(Br)c(C(=O)O)cc1OC	5%	6%
CC(C)(CNC(=O)c1cccc2ccccc12)CNC(=O)c1cccc2ccccc12	-21%	20%
Cc1cccc(C(C)C)c1NC(=O)C(NS(=O)(=O)c1cccc2nsnc12)c1ccccc1 (stereo not given)	3%	46%[activator]
CCCS(=O)(=O)c1nc(S(=O)(=O)c2ccc(C)cc2)c(NC(C)c2ccccc2)s1 (stereo not given)	0%	47%[activator]
Cc1cccc(-c2nc(SCc3cc(=O)c4c(C)cc(C)cc4[nH]3)n[nH]2)c1	-9%	-8%
COC(=O)C1CN(Cc2ccc(OC)cc2)CCS(=O)(=O)N1Cc1ccc(F)cc1 (stereo not given)	-2%	9%
Cc1ccc(OCC(=O)Nc2ccc3oc(-c4ccccc4)nc3c2)c(-n2cnnc2)c1	93%[activator]	8%
O=S(=O)(CCCSc1nc2ccccc2s1)c1ccccc1	58%[activator]	23%
COc1cc(C2CC(=O)N(c3ccc(C)cc3)C3=C2C(=O)OC3)cc(OC)c1OC (stereo not given)	35%[activator]	20%
Cc1ccccc1CC(=O)Nc1ccc(OC2CCCC2)cc1	25%	21%
CCc1c(C)sc2c1c1nc(-c3ccccc3)nn1c(=O)n2CC(=O)N1CCCC1	17%	6%
CCOc1ccc(NS(=O)(=O)c2ccc3[nH]cc(C(=O)NC4CCCC4)c(=O)c3c2)cc1	-20%	43%[activator]
COc1cccc(NC(=O)CC2Nc3ccccc3NC2=O)c1 (stereo not given)	152%[activator]	48%[activator]
CCCOC(=O)C(CC)Oc1ccc2c(=O)c(Oc3cccc(C)c3)coc2c1 (stereo not given)	-10%	-9%
COc1cccc(Nc2cc(C)nc3nc(-c4ccc(Cl)cc4)nn23)c1	3%	6%
O=C(NC(CN1CCCC1)c1ccccc1)c1cc2ccccc2oc1=O (stereo not given)	45%[activator]	16%
CCC(C)c1ccc(NC(=O)CC(C)C)cc1 (stereo not given)	194%[activator]	27%
COC(=O)c1ccc(NC(=O)CN(CCc2ccccc2)S(=O)(=O)c2ccc(OC)cc2)cc1	15%	75%[activator]
COc1ccc(C(=O)Nc2cccc(-c3nc4ccccc4o3)c2)cc1	14%	-6%

(listing goes on)
SMILES	StopGo FLuc	StopGo RLuc
Cc1sc2nc(N(CCO)CCO)n3nc(-c4ccccc4)nc3c2c1C	-3%	-8%
CCOc1ccc(CN(CCc2ccc3c(c2)OCO3)Cc2ccc(OC)c(Br)c2)cc1	-14%	-5%
O=[N+]([O-])c1ccc(NS(=O)(=O)c2cccs2)cc1	30%[activator]	99%[activator]
Cc1cccc(N2CCN(S(=O)(=O)c3c(C)nc4scc(C)n4c3=O)CC2C)c1 (stereo not given)	12%	25%
Cc1ccc(Cn2c(C(=O)O)c(CNCc3ccc(C)o3)c3ccc(C)cc32)cc1	-31%	9%
COc1cccc2cc(-c3cc(=O)oc4cc(C)c(C)cc34)oc12	-10%	-15%
COc1ccc(/C=C/C(=O)c2cc3cccc(OC)c3oc2=O)cc1	21%	7%

Of the compounds above, these contain fluorine.
SMILES	StopGo FLuc	StopGo RLuc
CC1CCC(NC(=O)c2ccc3c(c2)N(Cc2cccc(F)c2)C(=O)c2ccccc2S3)CC1 (stereo not given)	151%[activator]	-4%
O=C(NCCOc1ccccc1F)c1n[nH]c(=O)c2ccccc12	84%[activator]	6%
COC(=O)[C@H](C(C)C)N(CCc1cn(Cc2ccccc2)nn1)S(=O)(=O)c1ccc(F)cc1Br	-12%	68%[activator]
Cc1cccc(N2CCN(C(=O)CNC(=O)NCc3ccc(F)cc3)CC2)c1C	-14%	-21%
CCN(CC)C(=O)c1c(NC(=O)c2ccccc2F)sc2c1CCC(C(C)(C)C)C2 (stereo not given)	0%	25%
Cc1ccc(N)c(OCC(F)F)c1	-3%	-11%[1.06 µM]
O=C(/C=C/c1cccc(C(F)(F)F)c1)c1cc(Cl)ccc1Cl	24%	16%
CCC1CCCCN1C(=O)Cn1c(=O)cc(C(F)(F)F)c2c(C)nn(C)c21 (stereo not given)	-26%	6%
O=C(CSc1cn(Cc2ccc(F)cc2)c2ccccc12)N1CCCCCC1	0%	29%
CNC(=O)C1CCC(Cn2c(=O)c3sccc3n(CC(=O)NCc3ccc(F)cc3)c2=O)CC1 (stereo not given)	-4%	-1%
O=C(CSCc1ccc(F)cc1)N1CCN(c2ccc(Cl)cc2)CC1	u	u
Cc1nn2c(=O)c(NC(=O)c3ccc(F)cc3)cnc2s1	32%	7%
COc1cccc(-c2cc(C(F)(F)F)n3nc(-c4ccc(C)cc4)cc3n2)c1	5%	-7%
Cc1ccccc1NC(=O)CCn1cnc2onc(-c3ccc(F)cc3)c2c1=O	-26%	-14%
O=C(NCc1ccccc1OC(F)F)c1ccccc1C(F)(F)F	29%	49%[activator]
COC(=O)C1CN(Cc2ccc(OC)cc2)CCS(=O)(=O)N1Cc1ccc(F)cc1 (stereo not given)	-2%	9%
